Bioassay records deposited in PubChem BioAssay by National Center for Advancing Translational Sciences (NCATS).
GLA inh pH 4.5 – inhibitors of human alpha-galactosidase A at pH 4.5 | purified enzyme, 4-MU-alpha-Gal fluorescence, pH 4.5 | activity change, negative = inhibition, % at 105 µM | AID 1467 | 230,000 tested, under 10 active | P06280; inconclusive = small, poorly fitted or top-dose-only inhibition, or a rising curve; inactive = flat fitted curve, though single readings scatter; no compound was filed as active;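 also: 0% = full activity with enzyme and -100% = basal without enzyme; dose as in the result columns while the protocol names 77 µM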
Target sequence (P06280 whole entry, looked up): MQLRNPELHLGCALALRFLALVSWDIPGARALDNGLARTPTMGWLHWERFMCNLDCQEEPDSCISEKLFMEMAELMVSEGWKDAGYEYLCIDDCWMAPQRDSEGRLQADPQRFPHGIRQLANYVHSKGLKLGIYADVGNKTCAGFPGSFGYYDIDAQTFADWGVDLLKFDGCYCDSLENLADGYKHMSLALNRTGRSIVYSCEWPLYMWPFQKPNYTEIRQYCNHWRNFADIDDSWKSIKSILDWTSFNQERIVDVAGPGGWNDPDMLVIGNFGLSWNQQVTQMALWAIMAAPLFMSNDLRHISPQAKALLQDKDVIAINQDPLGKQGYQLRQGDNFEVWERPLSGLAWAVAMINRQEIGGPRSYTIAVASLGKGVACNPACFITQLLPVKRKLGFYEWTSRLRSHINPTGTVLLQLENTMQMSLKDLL
Rango complex inh – inhibitors of Rango-importin beta complex formation; Rango CFP/YFP FRET sensor + importin beta, 45 min; Potency, µM (highest dose often 92.2 µM), for the others: top-dose inhibition of complex formation; hit rate 0.031% among 340,000; active = rising FRET ratio curve, often small or poorly fitted; inconclusive = mostly compound fluorescence or quenching in the first reads; inactive = flat curves in all reads;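 also: potency is read from the fitted curve at half-maximal effect; 0% = DMSO wells and 100% = buffer wells lacking importin beta; nearly all actives have a fitted effect of over 15% in size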
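FRET biosensor (snurportin 1 IBB flanked by EYFP and cerulean), 50 nM, with compound 5 min, then 0.125 microM importin beta in PBS, 1 mM DTT, 0.02% Tween-20, 0.1% BSA. CFP/YFP ratio read after 45 min at room temperature; pre-read flags interference.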
Rango dissoc inh – inhibitors of RanGTP-induced Rango-importin beta complex dissociation. AID 540253. Potency, µM (titrated, usually from 46.1 µM), without a hit: at the top dose activity change, negative = inhibition. Biochemical FRET Rango-importin beta, RanGTP-induced dissociation. hit rate 0.071% among 340,000; active means falling FRET ratio curve, often poorly fitted, with flat reads before Ran was added; inconclusive means other falling curves, or compound fluorescence or quenching; inactive means flat or rising ratio curve;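 also: potency is read from the fitted curve at half-maximal effect; % of control where 0% means no effect; nearly all actives have a fitted effect of over 45% in size; -100% = wells without RanGTP and RCC1; the record marks most hits as doubtful in a second field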
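Compounds sat 5 min at room temperature with 0.1 uM Rango biosensor plus 0.25 uM importin beta, then FRET pre-read. RanGTP-RCC1 (0.6 uM Ran, 2mM GTP, 0.2 uM RCC1) added for 45 min, and the CFP/YFP post-read measured blocked complex dissociation.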
miR-21 reporter – miR-21 reporter, rising signal. Potency, µM (titrated, usually from 38.3 µM), for inactives: top-dose reporter change, positive = more light. 340,000 tested, under 10 active. HeLa miR-21 FLuc reporter, luciferase, 48 h; active = well fitted rising curve with a large enough effect; inconclusive = small, poorly fitted or top-dose-only effect; inactive = no such curve, though single readings can be large or run the other way;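 also: % of control where 0% means no effect; miR-21 action dims this reporter so a rising signal means less miR-21 action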
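Luminescence from a firefly luciferase reporter carrying a miR-21 binding site downstream, stably expressed under a CMV promoter in HeLa cells that make miR-21 endogenously, reports miRNA modulation after 48 h compound exposure up to approximately 40uM final.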
* = called active by the depositor; u = inconclusive; x = no result given; & = joins results of further samples. Some of the compounds tested (hit frequency here may not be typical).

SMILES	GLA inh pH 4.5	Rango complex inh	Rango dissoc inh	miR-21 reporter
N#Cc1ccccc1OCC(=O)NNC(=O)c1ccncc1	x	1.6%	1%	x
CC(c1ccco1)N(C(=O)c1ccc(Cl)s1)c1ccccn1 (stereo not given)	12	-1.0%	-9%	-17%
O=C(NC1CCCCC1)NC1CCN(S(=O)(=O)Cc2ccccc2)CC1	1	-2.4%	-13%	-6%
COc1ccccc1NC(=O)CCC(=O)OCc1cccc([N+](=O)[O-])c1	-9	0.3%	28%	-1%
O=C(NCCN1CCOCC1)c1ccc(NS(=O)(=O)c2ccccc2)cc1	x	-0.3%	8%	-13%
O=C(NNS(=O)(=O)c1ccccc1C(F)(F)F)c1cc2ncc(C(F)(F)F)cc2s1	0	-0.4%	-4%	-1%
O=C1NNC(c2ccccc2)=N/C1=C\c1ccccc1	3	-1.9%	-10%	-12%
Cc1ccc(-n2nnnc2SCC#N)cc1	-3	-2.3%	13%	-6%
CCOc1ccc(Cl)cc1CNCCNCCO	-5	8.2%	-9%	-7%
O=C(Nc1nnc(-c2ccc(Cl)cc2)o1)C1=COCCO1	0	-0.3%	19%	-20%
CC(Sc1ccc(Cl)cc1)C(=O)NCC(c1ccco1)N1CCCCC1 (stereo not given)	x	2.4%	1%	x
COc1ccc(S(=O)(=O)N2CCN(CC(=O)Nc3cccc(OC)c3)CC2)cc1	x	0.0%	7%	5%
Clc1cccc(CN2COc3c(cc(Cl)c4cccnc34)C2)c1	-16	x	x	u
Oc1ccc(Cl)cc1-c1cc(C(F)(F)C(F)F)nc(-c2ccccc2)n1	3	-4.2%	16%	10%
O=C(OC(C(=O)NC1CCCC1)c1cccnc1)C1=Cc2ccccc2OC1 (stereo not given)	-8	2.8%	5%	2%

An excerpt of these results, with values ahead of the structure:
GLA inh pH 4.5 | Rango complex inh | Rango dissoc inh | miR-21 reporter | molecule
0 | -0.3% | 19% | -20% | O=C(Nc1nnc(-c2ccc(Cl)cc2)o1)C1=COCCO1
1 | -2.4% | -13% | -6% | O=C(NC1CCCCC1)NC1CCN(S(=O)(=O)Cc2ccccc2)CC1
-16 | x | x | u | Clc1cccc(CN2COc3c(cc(Cl)c4cccnc34)C2)c1
x | 1.6% | 1% | x | N#Cc1ccccc1OCC(=O)NNC(=O)c1ccncc1
3 | -4.2% | 16% | 10% | Oc1ccc(Cl)cc1-c1cc(C(F)(F)C(F)F)nc(-c2ccccc2)n1
x | -0.3% | 8% | -13% | O=C(NCCN1CCOCC1)c1ccc(NS(=O)(=O)c2ccccc2)cc1
x | 0.0% | 7% | 5% | COc1ccc(S(=O)(=O)N2CCN(CC(=O)Nc3cccc(OC)c3)CC2)cc1

Next part:
SMILES	GLA inh pH 4.5	Rango complex inh	Rango dissoc inh	miR-21 reporter
CCOP(=O)(OCC)c1nc(-c2ccc(C)cc2)oc1NCc1ccccc1	-1	-0.4%	-1%	3%
O=C(NNc1nc2ccc(F)cc2s1)c1cccc(F)c1	-4	-1.4%	-5%	19%
CCC(=O)NCCNc1nc2cc(C)cc(C)c2cc1C#N	17	-6.8%	-7%	-10%
N#Cc1ccccc1NC(=O)CNc1ccccc1N1CCCCC1	-6	-5.2%	-9%	-1%
Cc1cc(Cl)c(S(=O)(=O)Nc2ccon2)cc1OCC(=O)NC1CCCCC1	10	-0.6%	1%	-7%
COc1cc2ncnc(NCc3ccc4c(c3)OCO4)c2cc1OC	x	0.4%	21%	-7%
COC(=O)c1cccc(NC(=O)CC2NCCNC2=O)c1 (stereo not given)	-5	3.4%	4%	-4%
CCCS(=O)(=O)c1nc(S(=O)(=O)c2ccc(C)cc2)c(N2CCCC2)s1	-1	-3.1%	10%	-1%
O=C(Nc1ccc2c(c1)C(=O)OC2)c1ccc(F)cc1F	-2	-1.0%	0%	-34%
CCCc1cc(=O)n2[nH]c(C(F)(F)F)nc2n1	2	3.2%	19%	0%
Cc1cc(NC(=O)COC(=O)C2CC(=O)N(c3ccc(Br)cc3)C2)no1 (stereo not given)	x	0.1%	12%	8%
CCN(C(=O)CSc1nnc(-c2c[nH]c3ccccc23)n1C1CC1)C1CCS(=O)(=O)C1 (stereo not given)	x	-1.7%	15%	x
COc1ccc(OC)c(NC(=S)NCCN2CCOCC2)c1	4	-0.8%	-1%	-5%
COc1ccc(N2CCN(CCCNC(=O)C3CCCN(S(=O)(=O)c4cnc[nH]4)C3)CC2)cc1 (stereo not given)	1	-2.1%	4%	0%
C[C@H](CO)N1C[C@H](C)[C@@H](CN(C)S(=O)(=O)c2ccccc2)Oc2c(cccc2N(C)C)C1=O	x	6.3%	-2%	x
CCOC(=O)c1c(C)n(OCc2ccccc2)c2ccc3nonc3c12	u	0.8%	-5%	-3%
COc1ccc(Cl)cc1NC(=O)CN(C)C(=O)c1cccc(-n2cnnn2)c1	x	1.2%	-5%	x
Cc1cc(=O)oc2cc(OCC(=O)N3CCCc4ccccc43)ccc12	5	u	3%	-6%
Cc1cc(C)c(S(=O)(=O)N2CCOC2CNC(=O)C(=O)NCc2ccccn2)c(C)c1 (stereo not given)	x	1.2%	9%	-1%
N#Cc1c(NC(=O)c2ccco2)sc2c1CCC2	x	-4.8%	-8%	3%
CC1(C(=O)NCc2cc(F)cc(C(F)(F)F)c2)C=CC2(CCCCC2)N1C(=O)c1ccccc1 (stereo not given)	-4&-7	-6.6%	-12%	-10%
Cn1c(=O)c2c(-c3ccccc3)n(-n3cnnc3)cc2n(C)c1=O	-2	u	3%	-4%
Cc1c(NC(=O)c2ccc(-c3ccccc3)cc2)cccc1C(=O)O	4	-0.1%	0%	-45%
CC(Cc1n[nH]c(=S)n1N)c1ccccc1 (stereo not given)	x	4.1%	-8%	3%
CN(C)CCN1C(=O)c2oc3ccccc3c(=O)c2C1c1cccc(Br)c1 (stereo not given)	6	0.1%	8%	-5%
CSC(=NS(=O)(=O)c1ccccc1)SC	-6	2.3%	-12%	-8%
N#CC(=C1N=c2ccccc2=N1)c1c(O)[nH]c2ccccc12	-2	x	x	-8%
CN1CCN(/C=N/c2sc3c(c2C#N)CCCCC3)CC1	-1	0.9%	-1%	-58%
COCc1ccc(CN2CCc3c([nH]c4ccccc34)C2CC(C)C)o1 (stereo not given)	-6	u	u	-2%
Cc1ccnc(NC(=O)CCC(=O)N(CC(=O)NCc2ccccc2)Cc2ccco2)c1	-4	1.2%	-3%	1%
Cc1c(CCO)c(=O)[nH]n1C(=O)c1ccc(F)cc1	-7	-1.8%	-14%	-19%
COc1ccc(NC(=O)c2cc(S(=O)(=O)N3CCOCC3)cs2)cc1	7	0.4%	-27%	1%
CCOc1ccc(CN2CCC(n3nccc3NC(=O)C3CC3)CC2)cc1CO	x	-0.3%	6%	0%
CCC(C)(C(=O)NC1CCCCC1)N(Cc1cccs1)C(=O)c1ccc(=O)[nH]c1 (stereo not given)	1	-0.9%	8%	-9%
CCOc1ccc(C(=O)c2nc3c(n2O)CCCC3)cc1	-3	4.8%	4%	-22%
CCOc1ccc(CCNC(=O)C2CC(=O)N(C3CCCC3)C2)cc1OCC (stereo not given)	5	3.3%	11%	0%
N#C/C(=C\c1ccco1)C(=O)Nn1cnnc1	-2	u	-9%	-1%
Cc1nc(C)c(C(=O)OCC(=O)Nc2ccccc2)s1	x	0.1%	-3%	x
O=C(CCCn1c(=O)c2cccn2c2cccnc21)NCCc1ccc(Cl)cc1	x	-2.9%	15%	-1%&-9%
COc1ccc(-n2nnnc2SCC(=O)c2cccc(OC)c2)cc1	-12	4.4%	-12%	18%
O=C(COc1cccc2ccccc12)NNC(=O)[C@@H]1CCCC[C@@H]1C(=O)O	-12	0.6%	7%	-7%
O=C(COC(=O)c1ccccc1Br)Nc1ccc(F)cc1	12	-1.1%	12%	-26%
CN(C)C(=O)c1nc2ccc(Cl)cn2c1CN1CCCC(OCc2cccnc2)C1 (stereo not given)	u	-0.7%	-1%	1%
Cc1c(Br)c([N+](=O)[O-])nn1CC(=O)Nc1ccc(C(N)=O)cc1	6	7.3%	-3%	-2%
O=C(COC(=O)c1ccc2ccccc2c1)Nc1ncc(C(F)(F)F)cc1Cl	4	-0.7%	-19%	0%
Cc1ccc(-c2cc(C(=O)N3CCN(c4ncccn4)CC3)c3cc(Br)ccc3n2)o1	7	u	-10%	-4%
Cc1ccc(NC(=O)COC(=O)c2ccco2)cc1C	x	-0.2%	-3%	x
CCOC(=O)Cn1c(S(=O)(=O)Cc2ccccc2)nc2ccccc21	9	-5.5%	1%	-3%
C=CCn1c(=O)c(C#N)cc2c(=O)n3ccccc3nc21	u	u	u	0%
CCc1cccc(OCC(=O)Nc2c[nH]c(=O)[nH]c2=O)c1	3	1.5%	11%	-3%
COCCCNC(=O)C1CCC(=O)N(c2ccc3c(c2)OCO3)C1c1ccc(OC)cc1 (stereo not given)	x	5.1%	14%	2%
Cc1ccc(C(=O)NCC(=O)N2CCN(c3ccccc3)CC2)cc1	x	-2.2%	-6%	0%
C/C(=C\c1ccco1)C1Nc2cccc3cccc(c23)N1	0	x	x	-5%
O=C(c1ccco1)N(c1ccccn1)c1ccccn1	-3	-2.7%	-12%	-4%
CN(C)S(=O)(=O)N1CCN(S(=O)(=O)N2CCOCC2)CC1	8	-0.5%	20%	0%
CC(C)(C)C(=O)NNC(=O)c1ccc(Oc2cc(Cl)cc(Cl)c2)o1	1	0.1%	0%	-1%
COC(=O)C1=C(C)NC2=C(C(=O)CCC2)C1c1ccsc1 (stereo not given)	0	x	x	-2%
Cc1cc(NS(=O)(=O)c2ccc(NC(=O)C(C)Oc3ccc4c(C)cc(=O)oc4c3)cc2)no1 (stereo not given)	1	-0.6%	7%	-9%
COc1c2c(c3c(c1OC)c(=O)c1ccccc1n3C)OCO2	x	u	u	x
CC(=O)Nc1cccc(NC(=O)CSc2ccc3nnc(CCNC(=O)c4ccccc4)n3n2)c1	7	3.1%	-5%	2%

Next entries
SMILES	GLA inh pH 4.5	Rango complex inh	Rango dissoc inh	miR-21 reporter
COc1cccc(-c2nc(CS(=O)(=O)CC(=O)NC3CCC(C)CC3)c(C)o2)c1 (stereo not given)	x	-0.7%	1%	14%
CCOC(=O)c1ccccc1NC(=O)c1cn(-c2ccc(C)c(C)c2)c(=O)c2ccccc12	0	u	-19%	-1%
CCC1CCCCN1CCCNC(=O)CN1C(=O)c2cccnc2Oc2ccc(C)cc21 (stereo not given)	x	0.3%	0%	-6%&-7%
Cc1ccc(C(=O)N2CCCC(CCC(=O)N3CCN(c4ccccn4)CC3)C2)cc1 (stereo not given)	x	-1.9%	-9%	23%
O=C(NCc1cccs1)C1CCCN1C(=O)Nc1cccc(F)c1 (stereo not given)	6	-2.3%	1%	-1%
O=C(Cc1ccc(NC2=NC3CS(=O)(=O)CC3S2)cc1)NCc1ccccc1Cl (stereo not given)	x	0.2%	-6%	0%
O=C(NCCN1CCOCC1)c1cc(-c2ccc(Br)cc2)on1	0	u	-3%	-11%
CCc1nc2sc3ccccc3c(=O)c2c(=O)n1CCOC	2	6.5%	1%	-5%
CCOc1ccc(NC(=S)NCc2nc3ccccc3[nH]2)cc1	0	-0.1%	-9%	-9%
N#Cc1c(N)n[nH]c1CCCN	-2	2.2%	1%	0%
O=C(NCC1(c2ccccc2)CCCC1)c1ccc(Br)o1	-3	-3.7%	-12%	6%
Cc1cc(C)c(NC(=O)Cc2ccc(-n3cccc3)cc2)c(C)c1	0	5.6%	-2%	-2%
O=S(=O)(c1ccccc1F)N1CCN(c2nc3ccccc3s2)CC1	-2	5.4%	10%	-2%
O=C(CN1CCN(Cc2ccccc2)CC1)N1CCCc2c1c(=O)oc1ccc(O)cc21	x	-2.2%	-9%	29%
CC1=C(C(=O)OC(C)C)C(c2cccs2)N2C(=O)C(C)SC2=N1 (stereo not given)	6	7.4%	-10%	-3%
Cc1ccc(Cn2nc(C)c3cc(C(=O)OCC(N)=O)sc32)cc1	10	0.4%	7%	-9%
